NPYLR7 agonist: mosquito NPYLR7 agonism | HEK293T NPYLR7/Galpha15, GCaMP6s calcium fluorescence | activation, % at 10 µM | 270,000 tested, 0.15% active | AID 1259423; in the data active means activation above about 40%;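 further: 0% = vehicle and 100% = reference agonist at the receptor; some compounds past the cut are filed as inactive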
NPYLR7 agonist max-min: recorded beside NPYLR7 agonist, whose call it bears; activation, %; measured here: Max-Min RFU normalised activation; some inactives read as strong as hits;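 span of the calcium signal over five minutes; 0% = vehicle and 100% = native peptide agonist; compound fluorescence can raise it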
Starred values were filed as active, the others as inactive; & = joins results of further samples. These rows are one share of the data. The share of hits here may be higher or lower than overall.

SMILES	NPYLR7 agonist	NPYLR7 agonist max-min
COc1ccc(OC)c(/C=C2N=C(/C=C/c3ccc(C)cc3)OC\2=O)c1	0.0	-4.1
Cc1nc(Cc2nnc(SCC(=O)c3cc(C)n(C)c3C)o2)cs1	0.5	-1.3
Cc1cc(-c2nnc(CCC(=O)N3CCN(C4CCCCC4)CC3)o2)no1	6.4	6.7
Cn1nc(C(C)(C)C)cc1C(=O)N1CCOCC1c1cc(C(=O)NCc2ccccc2)no1 (centres undefined)	4.2	1.0
C=CCNC(=O)CN1CN(c2ccccc2)C2(CCN(C(=O)COc3ccccc3)CC2)C1=O	19.0	21.4
CCCc1ncc(C(O)c2ccc(C)cc2)n1C (centres undefined)	15.3	6.8
Cc1cccc(N2CCCn3c2nc2c3c(=O)n(CCN3CCOCC3)c(=O)n2C)c1	10.3	5.0
O=c1ccccn1Cc1cc(-c2ccco2)on1	-3.6	-3.7
CCc1nc2c(OCC(=O)N3CCOCC3)cccn2c1N(C)C(=O)c1ccco1	11.2	-2.1
N#CCn1c(=O)oc2ccccc21	2.3	6.0
Cc1cc(C(=O)N2CCN(c3ccc(NC(=O)c4ccccc4F)cn3)CC2)no1	-3.0	9.7
CCc1nc2c(OCc3ccc(C(=O)OC)cc3)cccn2c1N(C)C(=O)CC(C)C	0.1	3.3

Exported in markdown: entries from further up.
| smiles | NPYLR7 agonist | NPYLR7 agonist max-min |
| --- | --- | --- |
| CCCc1ncc(C(O)c2ccc(C)cc2)n1C (centres undefined) | 15.3 | 6.8 |
| Cc1cccc(N2CCCn3c2nc2c3c(=O)n(CCN3CCOCC3)c(=O)n2C)c1 | 10.3 | 5.0 |
| O=c1ccccn1Cc1cc(-c2ccco2)on1 | -3.6 | -3.7 |

Further structures
SMILES	NPYLR7 agonist	NPYLR7 agonist max-min
CCOC(=O)c1sc(=S)n(C)c1C	3.2	2.6
CC(C)COc1nc(-c2ccc(Cl)c(Cl)c2)n(-c2cccc(NC(=O)C(C)C)c2)n1	21.1	17.4
CC(C)SCCNC(=O)c1cccc2ccnn12	4.1	1.7
COc1cn2c(cc1=O)C(=O)N(CCNC(=O)c1ccc(N3C(=O)CCC3=O)cc1)CC2	2.0	-1.8
O=C(CCN(CCCN1CCOCC1)c1nc(-c2ccco2)nc2ccccc12)Nc1ccc(F)cc1	-15.4	-3.7
O=C(Cn1nc2c(c1NC(=O)Cc1ccc(F)cc1)CSC2)NCC1CCCO1 (centres undefined)	-3.3	-1.9
CCOC(=O)N1CCN(C(=O)CC(c2ccc(Cl)c(Cl)c2)c2c[nH]c3c(CC)cccc23)CC1 (centres undefined)	4.4	13.8
CCOCC(=O)Nc1cc(C)on1	0.5	7.4
COc1ccc2cc(CN3CCN(c4cccc(C)n4)CC3)c(=O)[nH]c2c1	-3.7	-4.6
CC(=O)Nc1ccc(Cl)c(C(=O)NCc2c(F)cccc2F)c1	4.2	-8.0
CCCC(=O)N1CCC1(C)C(=O)Nc1ccc2c(c1)CCN2C(C)=O (centres undefined)	0.2	-0.6
O=C(COc1ccccc1)Nc1nnc(SCc2ccc(Br)cc2F)s1	2.9	16.4
COc1ccccc1-c1cccc(-c2cccc(NC(=O)Cc3ccc(F)cc3)c2)n1	-1.3	-0.9
CC(C)CN1CCN(Cn2cc(-c3ccccc3)cn2)CC1	-0.9	-1.1
COCCN1C(=S)NC(c2ccc(F)c(Br)c2)C(C(=O)OC)=C1C (centres undefined)	0.0	4.4
CCCCc1ccc(S(=O)(=O)NC(=O)C2(C)CCN2C(=O)c2cc(C)n(C)n2)cc1 (centres undefined)	-0.1	-0.4
O=C(Nc1sccc1C(=O)O)c1ccc(Br)cc1	3.9	3.6
CN(c1ccc(I)cc1)S(=O)(=O)c1cn[nH]c1	3.8	1.0
Cc1c(C(C)NC(=O)c2ccc3nc(Cc4ccccc4F)oc3c2)cnn1C (centres undefined)	7.6	0.9
COC1(C)CC(N(C)c2cc(C(F)(F)F)nc3ncnn23)C1(C)C (centres undefined)	0.7	-1.6
Cc1nn(CC(=O)Nc2ccccc2OC(F)(F)F)c(C)c1[N+](=O)[O-]	2.4	-0.2
CCc1nc(N(CCC(=O)N2CCN(CC)CC2)Cc2ccccc2)c2ccccc2n1	4.3	11.7
Cc1ccn(C(=O)Cc2csc(-c3ccccn3)n2)c(=NC2CCCCC2)c1	1.2	1.6
CCn1c(SCC(=O)c2cc(C)n(C3CC3)c2C)nnc1N1CCOCC1	-1.8	-2.9
CN(C)c1cc(NC2CCS(=O)(=O)CC2)ncn1	1.5	-0.7
O=C(Nc1nnc(C2CC2)s1)C1=Cc2ccccc2OC1	7.9	3.8
Cc1ccccc1-c1ncc(CN2[C@@H]3CC[C@H]2CC(O)C3)s1 (some centres undefined)	0.4	-0.9
CC(c1ccccc1)N(Cc1cccc(F)c1)Cc1nc(C(=O)NCC2CCCO2)co1 (centres undefined)	10.6	6.2
Cc1ccccc1S(=O)(=O)NC(=O)C1(C)CCN1C(=O)Cc1cccs1 (centres undefined)	2.9	3.0
O=C(Cn1nc(-c2ccc(Br)cc2)ccc1=O)Nc1cccc(C(F)(F)F)c1	9.6	0.8
O=C1NC2(CCN(Cc3cccnc3)CC2)Nc2ccc(Br)cc21	-2.2	-2.1
O=S(=O)(Nc1ccc2c(c1)CCC2)c1ccc(Br)cc1	-2.1	2.0
CCOC(=O)c1cccnc1Oc1cccc(NC(=O)c2ccccc2-c2ccc(C(F)(F)F)cc2)c1	-7.1	-15.2
Cc1ccc(OCCC(=O)Nc2ccn(C)n2)c(C)c1	7.2&1.3	6.2&0.2
Cn1c(=O)c2c(SCC(=O)Nc3ccccc3)nc(-c3ccccc3)nc2n(C)c1=O	8.4	11.2
O=c1nc(NCc2ccco2)ccn1-c1nc(-c2ccccc2)sc1-c1ccccc1	-2.9	-1.4

One compound at a time (already shown):
Results for COc1cn2c(cc1=O)C(=O)N(CCNC(=O)c1ccc(N3C(=O)CCC3=O)cc1)CC2 = NPYLR7 agonist = 2.0; NPYLR7 agonist max-min = -1.8
Results for CCCC(=O)N1CCC1(C)C(=O)Nc1ccc2c(c1)CCN2C(C)=O (centres undefined) = NPYLR7 agonist = 0.2; NPYLR7 agonist max-min = -0.6
Results for O=C(Cn1nc(-c2ccc(Br)cc2)ccc1=O)Nc1cccc(C(F)(F)F)c1 = NPYLR7 agonist = 9.6; NPYLR7 agonist max-min = 0.8

The results go on:
SMILES	NPYLR7 agonist	NPYLR7 agonist max-min
Cc1ccc2oc(-c3ccc(NC(=O)c4cc(Br)ccc4Cl)cc3)nc2c1	-18.1	-21.5
CC(/C=C1\N=C(c2ccc(F)cc2)OC1=O)=C\c1ccc2c(c1)OCO2	-19.8	-21.5
O=C(c1ccc(N2CCCC2=O)cc1)N1CC[C@@H](c2ccc(F)cc2)[C@H](O)C1	-0.8	-3.3
C#CC(C)(CC)OCC(O)CN1CCC(C(=O)OCC)CC1 (centres undefined)	4.3	23.4
C=CCN(C(=O)CNc1cccc(S(C)(=O)=O)c1)c1ccccc1	9.6	3.7
Cn1c(O)c(N=Nc2nncc3ccccc23)c2ccccc21	5.2	3.7
COc1cccc(C(=O)N2CCC3(CC2)SCCN3C(=O)c2cccs2)c1	-2.2	2.6
Cn1ncc2c(=O)n(CC(=O)Nc3ccccc3Oc3ccccc3)cnc21	-0.8	8.4
O=C(c1c[nH]c(=O)c(Cl)c1)N1CCOC(COc2cccc(C(F)(F)F)c2)C1 (centres undefined)	24.2	20.7
COc1cc(-c2cc(C)ccc2OC)nc(OC)n1	9.2	2.0
CCCCCCC1OCC2(CO)C(C)C=C(C)C1C2C (centres undefined)	-6.4	-13.9
Cc1sc(=O)n(CC(=O)Nc2ccc(Br)cc2)c1C	7.5	2.9
COC(=O)c1ccc(COC(CN2CCN(C(=O)c3cccnc3SC)CC2)c2cccc(OC)c2)cc1 (centres undefined)	5.8	-0.9
CCc1nn(-c2ccc(OC)cc2)c(CC)c1C(=O)NC1CC1	21.7	29.2
Cc1cccc(C(=O)NC(C)C(=O)N2CC=C(c3c[nH]c4ccccc34)CC2)c1 (centres undefined)	-1.2	-2.4
Cn1ccnc1CCC1CCCCN1C(=O)NCCc1ccccc1 (centres undefined)	0.8	0.5
Cc1ncoc1C(=O)Nc1ccc(N2CCC(CN(C)C)CC2)cc1	0.3	0.7
O=C(Cc1cc(F)cc(F)c1)N(Cc1ccccn1)CC1CCCO1 (centres undefined)	17.7	7.0
COc1ccc(C(=O)Nc2cc(C)nn2-c2ncnc3c2cnn3-c2ccc(C)cc2C)c(OC)c1	7.8	4.8
Cc1ccc2c(C)c(C(=O)N3CCC(=O)N(CC4CC4)C(C(C)C)C3)oc2c1 (centres undefined)	8.3	6.2
O=C(NC(C(=O)NC1CC1)C1CCN(C(=O)CCc2ccccc2)CC1)c1ccc2c(c1)OCO2 (centres undefined)	26.5	22.3
CC1(C(=O)NC2CCCCC2)CCN1C(=O)c1ccccc1CCc1ccccc1 (centres undefined)	7.0	5.5
CCOC(=O)N1CCN(C2CCCN(C(=O)CCCc3cccs3)C2)CC1 (centres undefined)	1.2&-0.1	-1.7&-1.0
COc1coc(CN2CCOC(C(F)(F)F)C2)cc1=O (centres undefined)	9.1	10.7

Part of the list above in order of length of the SMILES, low to high.
SMILES	NPYLR7 agonist	NPYLR7 agonist max-min
CCc1nn(-c2ccc(OC)cc2)c(CC)c1C(=O)NC1CC1	21.7	29.2
Cc1ncoc1C(=O)Nc1ccc(N2CCC(CN(C)C)CC2)cc1	0.3	0.7
CCOC(=O)N1CCN(C2CCCN(C(=O)CCCc3cccs3)C2)CC1 (centres undefined)	1.2&-0.1	-1.7&-1.0
Cc1ccc2c(C)c(C(=O)N3CCC(=O)N(CC4CC4)C(C(C)C)C3)oc2c1 (centres undefined)	8.3	6.2
COc1ccc(C(=O)Nc2cc(C)nn2-c2ncnc3c2cnn3-c2ccc(C)cc2C)c(OC)c1	7.8	4.8
COC(=O)c1ccc(COC(CN2CCN(C(=O)c3cccnc3SC)CC2)c2cccc(OC)c2)cc1 (centres undefined)	5.8	-0.9

(listing goes on)
SMILES	NPYLR7 agonist	NPYLR7 agonist max-min
O=C1CNC(=S)N1CC1CCCO1 (centres undefined)	4.7	4.5
COc1ccc2ccccc2c1/C=C1\NC(=S)NC1=O	-9.2	-16.7
CCc1ccc(CN(C)Cc2nc(-c3cccs3)no2)nc1	19.2	0.4
Cc1ccn2c(NC(=O)C34CC5CC(CC(C5)C3)C4)c(-c3cccc(F)c3)nc2c1	-8.8	-8.5
CCOC(=O)CNC(=O)N(CCCOC)CC(=O)Nc1cc(C(C)(C)C)nn1-c1ccc(C)cc1C	1.2	5.3
CCC1(C)C(=O)NCCN1Cc1cn[nH]c1C(=O)O (centres undefined)	-5.4	-7.1
Cc1ccc(S(=O)(=O)NC(c2ccccc2F)c2nccn2C)cc1 (centres undefined)	7.1	2.5
N#Cc1cccc(S(=O)(=O)Nc2cc(C(F)(F)F)ccc2-n2cccn2)c1	0.5	-2.6
O=C(Cc1cccs1)NCCn1nc(-c2cccs2)ccc1=O	0.3	-2.9
CCc1cccc(OCCCN(C)C(=O)c2cccc3nccnc23)c1	-7.6	-6.8
CS(=O)(=O)CCC(=O)Nc1c(F)cc(Br)cc1F	3.4	-7.4
O=C(c1ccc(-c2ccc3c(c2)OCCO3)s1)N1CCc2ccccc2C1c1ccc(F)cc1 (centres undefined)	-3.2	-1.0
c1nc(Nc2ccc3c(c2)OCCCO3)c2sccc2n1	11.0	4.6
CCn1c(SCC(=O)c2cc(C)n(CC3CCCO3)c2C)nnc1-c1ccco1 (centres undefined)	-5.4	8.7
CCc1nc(N)c(C#N)c(-c2cccn2C)c1C	3.9	2.0
O=C(O)c1ccnn1C(F)F	-5.2	-11.7
COc1ccc(S(=O)(=O)NC(=O)C2(C)CCN2C(=O)Cc2cc(C)cc(C)c2)cc1 (centres undefined)	0.8	-2.2
Cc1nn(C)cc1-c1ccnc(NC(C)c2ccc(-n3cncn3)cc2)n1 (centres undefined)	13.1	-6.6
CN(CCCN1c2ccccc2CCc2ccccc21)S(=O)(=O)c1ccccc1F	-5.1	-12.1
CC(=O)Oc1c(-c2ccc(NC(=O)Cc3ccccc3)cc2)c(-c2cccc(C)c2)nn1-c1ccc(C)cc1	3.6	1.3
COc1c(S(=O)(=O)N2CCCC2)ccc(Cl)c1Cl	2.2	0.8
Clc1ccc2c(NC3CC3)nc(Cc3ccccc3)nc2c1	4.6	13.2
Cc1ccc(S(=O)(=O)N/N=C2/C3CN4CCN(C3)CC2(c2ccccc2)C4)cc1	-3.5	-11.5
COCC(O)CN1CCc2c(F)ccc(F)c2C1 (centres undefined)	-5.5	-8.3
O=C(NCC(O)c1c(F)cccc1F)c1ccsc1 (centres undefined)	-3.9	-5.0
OC[C@H]1O[C@@](CO)(O[C@@H]2O[C@H](CO)[C@@H](O)[C@H](O)[C@H]2O)[C@@H](O[C@@H]2O[C@H](CO)[C@@H](O)[C@H](O)[C@H]2O)[C@@H]1O	-4.7	-11.4
CC(C)=CC(=O)NC(c1ccc(S(C)(=O)=O)cc1)c1cccc(N(C)C)c1 (centres undefined)	-7.4	-16.7
O=C(Nc1ncc(Cc2ccc(SC(F)F)cc2)s1)c1cccc([N+](=O)[O-])c1	-3.8	-10.0
O=c1ccc(-c2ccco2)nn1CCNS(=O)(=O)c1cc(C(F)(F)F)ccc1Cl	1.9	-0.2
CC(=NNC(=O)c1ccco1)c1ccc(O)cc1	-13.5	-14.5
COc1ccccc1CC(C)Nc1ccc(C#N)cn1 (centres undefined)	-0.6	-1.1
Cc1nn2c(NCC3CCCO3)cc(C(C)(C)C)nc2c1-c1ccccc1 (centres undefined)	-2.3	-6.1
Nc1nc(CNC(=O)CCSc2ccc3c(c2)OCCO3)cs1	13.9	6.2
O=C(NCCc1ccc(N2CCCC2)cc1)C(=O)Nc1ccon1	-8.1	-10.6
CCOc1ccc(-c2ccnc(N3CCN(C(=O)C(CC)c4ccccc4)CC3)n2)cc1 (centres undefined)	3.3	0.5
COc1cnc(N2C[C@H]3C[C@H](O)[C@@H](O)C[C@H]3C2)nc1	5.6	4.8
CC(C)(C)c1ccc(CC(=O)N2CCC2(C)C(=O)NCc2cccc3ccccc23)cc1 (centres undefined)	8.1	1.2
C=CCN1C(=O)c2ccc(C(=O)Nc3ccc(C(F)(F)F)cc3)cc2C1=O	-0.6	-2.7
COc1cccc(-c2nc3ccccn3c2NC(=O)CCC2CCCC2)c1	-12.3	-12.8
